# Biofilm kill mix: mixture kills Candida albicans biofilm cells. inhibition, % at 7.6 µM. hit rate 0.02% among 120,000. AID 1242. C. albicans biofilm persisters + clotrimazole, fluorescence viability; primary screen in compound mixtures of four per well;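 active = inhibition above 30.3% in the primary screen of four-compound pools, then above 30% when the compound was retested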;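 note: compounds exposed to preformed 24 h biofilms for 48 h; the number belongs to the whole pool; some results filed as inactive read as strong as hits; inactives centre near 12; 0% = biofilm with clotrimazole alone and 100% = kill control; retested singly at about 60 µM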
#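 System: C. albicans CAF4-2 wild-type biofilms; Medium: RPMI/MOPS medium, pH 7.0; Reagent: Clotrimazole, 50 µg/mL; Times: biofilm formation 24 h, compound exposure 48 h, 37 °C; Detection: 2-h Alamar Blue fluorescence, 535/590 nm excitation/emission; Evaluation: percent inhibition of biofilm viability.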
# The depositor's hits bear a star. Not all compounds are listed; the hit share may differ from the screen's.
entry	molecule	Biofilm kill mix
1	COc1cc(/C=N/n2cnc3c(sc4nc(C)cc(C)c43)c2=O)ccc1O	11
2	Cc1ccc(C2(CCNCc3ccco3)CCOC(C(C)C)C2)cc1 (centres undefined)	20
3	Cc1cc2nc3c(nc2cc1C)C(O)=C3O	27
4	COc1cccc(C2(c3cccc(OC)c3)CC2C(=O)Nc2ccc(F)cc2)c1 (centres undefined)	5
5	CC(C)(C)C(=O)CSc1nc2ccccc2o1	10
6	CC(C)c1cc(C(C)C)n2nc(N)nc2n1	16
7	CC1CCN(S(=O)(=O)c2cccc(C(=O)Nc3ccccc3)c2)CC1	-9
8	COc1ccc(/C=C(\NC(=O)/C=C/c2ccco2)C(=O)NCCc2nc3ccccc3[nH]2)cc1	11
9	CC(=O)CCc1oc2ccc([N+](=O)[O-])cc2c1-c1ccc(C)o1	9
10	Cn1cc(Cl)c(C(=O)NNC(=S)Nc2cccc(Cl)c2)n1	-9
11	CCCCC(=O)Nc1ccc2c(c1)nc1n2CCN(CCOC)C1	13
12	C#CCn1cc(/C=N/NC(=O)c2cc3ccccc3o2)c2ccccc21	9

# Random excerpt: two records from the list
entry	molecule	Biofilm kill mix
4	COc1cccc(C2(c3cccc(OC)c3)CC2C(=O)Nc2ccc(F)cc2)c1 (centres undefined)	5
1	COc1cc(/C=N/n2cnc3c(sc4nc(C)cc(C)c43)c2=O)ccc1O	11

# Further entries follow.
entry	molecule	Biofilm kill mix
13	CCN1CCN(c2nc(N)c([N+](=O)[O-])c(Nc3cccc(C)c3)n2)CC1	11
14	CN(C)c1ccc(N=Cc2nc(-c3ccccc3)oc2OC(=O)c2cccc(Cl)c2)cc1	6
15	O=C1CCC(C(=O)Nc2cccc(S(=O)(=O)N3CCOCC3)c2)N1 (centres undefined)	15
16	COc1ccc(C(=O)N2CCN(c3ccc([N+](=O)[O-])c(NCCc4ccc(OC)c(OC)c4)c3)CC2)cc1	18
17	Cc1ccc2cc(CN(C(=O)c3cccs3)c3ccccc3)c(=O)[nH]c2c1	7
18	O=C(COC(=O)CCC1CCCC1)NCc1ccc(Cl)cc1	12
19	O=C(c1nnc(-c2ccccc2)o1)C1CC1	15
20	Cn1c(=O)c2c(ncn2CC(=O)N/N=C/C=C/c2ccccc2)n(C)c1=O	15
21	CNC(=O)/C(C#N)=C/c1cn(CC(=O)OC)c2ccccc12	18
22	N#CCC(=O)NCCCc1ccccc1	14
23	CCOC(=O)C1(CCc2ccccc2)CCN(C(=O)C2CCOCC2)CC1	4
24	CCOC(=O)Nc1nnc(Cc2ccc(Cl)c(Cl)c2)s1	7
25	COc1ccc(S(=O)(=O)N[C@@H](C)C(=O)OCC(=O)Nc2cc3oc4ccccc4c3cc2OC)cc1	9
26	O=[N+]([O-])c1cccc(-c2c[n+]3c(n2-c2ccccc2)SCC3)c1	11
27	C[C@H](NC(=O)c1nc[nH]c1C(=O)NCCCCCNC(=O)OC(C)(C)C)C(=O)OC(C)(C)C	12
28	C/C(O)=c1/cnc2nc3ccccc3n2c1=O	0
29	O=P(Cc1cccc[n+]1[O-])(c1ccccc1)c1ccccc1	12
30	COc1cc([C@@H]2c3cc4c(cc3[C@@H](NC3CCN(Cc5ccccc5)CC3)[C@H]3COC(=O)[C@H]23)OCO4)cc(OC)c1O	9
31	COc1cc(C2C(C#N)=C(N)Oc3c2ccc2ccccc32)ccc1OCC(=O)Nc1cccc(C)c1 (centres undefined)	17
32	C=CCNC(=O)/C(C#N)=C/c1ccc(C)o1	4
33	Nc1nnn(CC(=O)N/N=C/c2ccncc2)n1	23
34	Cc1ccc(NC(=O)CSc2nnc(C3CC3)n2N)cc1S(=O)(=O)N1CCOCC1	-9
35	O=C(Nc1ccc(OCC(=O)N2CCOCC2)cc1)c1cncc(Br)c1	15
36	COC(=O)c1cn(Cc2cccc(C)c2)nn1	6

# Some of these compounds in order of length of the SMILES, smallest number first:
entry	molecule	Biofilm kill mix
12	C#CCn1cc(/C=N/NC(=O)c2cc3ccccc3o2)c2ccccc21	9
7	CC1CCN(S(=O)(=O)c2cccc(C(=O)Nc3ccccc3)c2)CC1	-9
31	COc1cc(C2C(C#N)=C(N)Oc3c2ccc2ccccc32)ccc1OCC(=O)Nc1cccc(C)c1 (centres undefined)	17

# The list continues.
entry	molecule	Biofilm kill mix
37	CSc1nc2n(n1)C(C)C1=C(CCCC1=O)N2 (centres undefined)	-1
38	COc1ccc(C2NC(c3ccc(OC)cc3)C([N+](=O)[O-])C(C)(C)C2[N+](=O)[O-])cc1 (centres undefined)	8
39	O=C(NCCc1ccccc1)c1cccc([N+](=O)[O-])c1	20
40	O=C(C[n+]1cc(-c2ccccc2)n2c1CCC2)OCc1ccccc1	19
41	O=C(COC(=O)c1c(Cl)cccc1Cl)NC1CCCCC1	-14
42	CC1=Nc2cc(C(=O)NCc3ccco3)ccc2Sc2ccc(C)cc21	0
43	Cc1ccc(NC(=O)C2(c3ccccc3)CCOCC2)cc1	23
44	Cc1ccc(OCC(=O)N/N=C/c2c[nH]c3ccccc23)c([N+](=O)[O-])c1	10
45	C#CCn1c(=NC(=O)CSCC(=O)N2CCOCC2)sc2ccccc21	2
46	Cn1c2ccccc2c2cnn(CC(=O)Nc3ccc(F)cc3F)c(=O)c21	12
47	Cc1ccc(OCC(=O)c2ccc(Cl)s2)c([N+](=O)[O-])n1	9
48	CCOc1ccc(S(=O)(=O)N2CCCCC2)c(C)c1C	14
49	CS(=O)(=O)N(CCc1ccccc1)CC(=O)NCc1ccc(Cl)cc1	15
50	Cc1ccc(-c2csc(NC(=O)CCNC(=O)c3ccccc3Cl)n2)cc1	8
51	Cc1ccc(C)c(NC(=O)CSc2nc(C)cc(C)c2C#N)c1	13
52	CCOC(=O)C1=C(C)NC(=O)/C1=C\N(C)C	0
53	COC(=O)c1ccccc1SC1CC(=O)N(c2cccc(C)c2)C1=O (centres undefined)	9
54	CCC(CC)=N/N=C/c1c(O)n(CC)c2cc(C3=NNC(=O)CC3)ccc12	10
55	CC(=O)c1cccc(N(CC(=O)Nc2ccc(F)cc2)S(C)(=O)=O)c1	10
56	OC(COc1ccccc1)CN1CCCCCC1 (centres undefined)	23
57	Cc1cccc(CSCC(=O)NCc2ccc(S(N)(=O)=O)cc2)c1	14
58	Cc1ccc(S(=O)(=O)Cn2nnnc2C(CC(C)C)N2CCN(C(=O)c3ccco3)CC2)cc1 (centres undefined)	16
59	CCN1CCc2c(OCC(=O)Nc3cccc(C)c3)cccc2C1=O	7
60	Cc1ccc(NC(=O)CSc2nn(-c3ccc(Cl)cc3)c(=S)s2)cc1S(=O)(=O)N(C)C	-7
61	O=C(c1ccc(Cn2ccc([N+](=O)[O-])n2)cc1)N1CCN(Cc2ccccc2)CC1	7
62	COc1ccc(CCNC(=O)CC2SC(=NCCC(C)C)NC2=O)cc1OC (centres undefined)	1
63	O=C(O)Cn1c(COc2ccc(Cl)cc2)nc2ccccc21	24
64	CCN(CC)S(=O)(=O)c1ccc(N2CCOCC2)c(NC(=O)c2ccc(F)cc2)c1	6
65	CC(=O)Nc1ccc(NC(=O)Cc2ccc(F)cc2)cc1	5
66	COC(=O)c1cccc(S(=O)(=O)N2CCC(c3nc4ccccc4o3)CC2)c1	10
67	CCOc1ccc(N=Nc2c(C)noc2C)cc1	15
68	O=C(CSc1ncn[nH]1)c1cc2ccccc2o1	2
69	O=C(CSCc1cccc(F)c1)NCc1ccccc1	15
70	Cc1ccc(NC(=O)N2CCCCC2)cc1NC(=O)N1CCCCC1	7
71	O=C(O)/C=C\c1cn(-c2ccccc2)nc1-c1cc2ccccc2o1	3
72	Cc1cc(NC(=O)/C(C#N)=C/c2ccco2)n(-c2ccccc2)n1	13
73	CCCCCc1cc(=O)oc2c(C(CCN(CC)CC)c3cc(OC)c(OC)c(OC)c3)c(OC)cc(OC)c12 (centres undefined)	13
74	O=C(O)CSc1nnc(Cc2cccc3ccccc23)n1-c1cc(C(F)(F)F)cc(C(F)(F)F)c1	25
75	S=C1NCCc2ccccc2C1c1ccccc1 (centres undefined)	10
76	CCOc1cc(/C=C2/NC(=O)N(CC(=O)OC)C2=O)ccc1OC	54
77	CC(CNC(=O)COc1ccccc1)OC(=O)Nc1cccc(Cl)c1 (centres undefined)	3
78	CCCCOc1ccc(CN(CCO)CCO)cc1[N+](=O)[O-]	8
79	Cc1csc2c(=O)sc(NC(=O)c3ccc(F)cc3)nc12	12
80	CN(C)c1cc[n+](CC(=O)c2ccc(Br)cc2)cc1	3
81	COc1ccc2c(c1)c(C(=O)CN1CCN(Cc3ccccc3)CC1)c(C)n2C	9
82	COCCCn1c(C)nnc1-c1cnn(-c2ccccc2)c1N	-1
83	O=C1NC2(CCCC2)C(=O)N1CCS(=O)(=O)Oc1ccccc1	13
84	Cc1cc[n+](Cc2ccc([N+](=O)[O-])cc2)cc1	9
85	O=C(Nc1ccccc1O)c1c(O)c2c([nH]c1=O)CCCC2	5
86	Cc1nc(N)nc(COc2ccccc2)n1	20
87	Cc1oc(S(=O)(=O)N2CCOCC2)cc1C(=O)Nc1ccc(Cl)cc1	21
88	Cc1sc2ncnc(Sc3nc4ccccc4s3)c2c1C	25
89	CCOc1ccc(N2C(=O)Nc3ccccc3C2(O)C(=O)N2CCN(c3ccccn3)CC2)cc1 (centres undefined)	17
90	CCCNC(=O)NC1CCCc2ccccc21 (centres undefined)	14
91	Cc1cccc(C)c1NS(=O)(=O)c1ccc(OCCNS(C)(=O)=O)cc1	10
92	COc1ccc(CCNC(=O)c2ccc(CN3CCC(Cc4ccccc4)CC3)cc2)cc1	14
93	Cc1ccc(NC(=O)N2CCCC2c2cccs2)cc1 (centres undefined)	6
94	O=C(Nc1ncc(S(=O)(=O)c2ccc([N+](=O)[O-])cc2)s1)c1cccc2ccccc12	10
95	COc1cc2c(cc1OC)CN(c1nc(CN3CCOCC3)nc3sc4c(c13)CCC(C)C4)CC2 (centres undefined)	15
96	Cc1c(C(=O)c2ccc(Cl)c([N+](=O)[O-])c2)c2ccccn2c1CCC#N	3

# More structures
entry	molecule	Biofilm kill mix
97	CCOC(=O)C(NC(=O)CCl)(Nc1sc(C)c(CC)c1C#N)C(F)(F)F (centres undefined)	21
98	Cc1ccc(CNC(=O)CSc2ccsc2[N+](=O)[O-])cc1	-7
99	CN(C)CCOC(=O)c1sc2ccccc2c1Cl	19
100	COc1ccc(C2c3ccc(O)cc3Oc3ncn(Cc4ccccc4)c(=N)c32)cc1OC (centres undefined)	13
101	Cc1nn(CC(=O)c2cccc(Cl)c2)c(C)c1[N+](=O)[O-]	8
102	Cn1cccc1C(=O)NC(=O)COC(=O)CNC(=O)c1ccc(Cl)cc1Cl	7
103	CC(Sc1ccc2ccccc2c1)C(=O)NC(N)=O (centres undefined)	19
104	COc1ccc([N+](=O)[O-])cc1NC(=O)CSCc1ccccc1C	20
105	COc1ccccc1Nc1cc(C)nc2c(C)ccc([N+](=O)[O-])c12	13
106	CN1c2ccccc2Oc2nnc(Cl)cc21	-2
107	O=C(N/N=C/c1ccc2c(c1)OCO2)c1ccc(Br)o1	20
108	Oc1ccccc1CN1CCC(C(O)(c2ccccc2)c2ccccc2)CC1	-5
109	O=C(NCC1CCCO1)c1cn(-c2ccccc2)nc1-c1ccccc1 (centres undefined)	10
110	CC(C(=O)NCC1CCCCC1)N1CCc2ccccc2C1 (centres undefined)	9
111	Cn1c(CCN2CCOCC2)nc2cc(NC(=O)c3cccs3)ccc21	10
112	Cc1nc([N+](=O)[O-])c(Br)n1Cc1ccccc1	3
113	CCOC(=O)/C(C#N)=C\c1c(C)cc(C)c(COC(C)=O)c1C	13
114	Cc1[nH]c(=S)c(C#N)c(-c2ccco2)c1C(=O)N(C)C	10
115	Clc1ccc(N/N=C/c2cccs2)nn1	14
116	Cc1nc2c(-c3ccc(F)cc3)c(C)nn2c(C)c1CCC(=O)Nc1ccccc1	39
117	Cc1ccc(CNC(=O)C2CC(=O)N(c3ccc(OCC(=O)N4CCCC4)cc3)C2)cc1 (centres undefined)	12
118	O=C(Nc1nc(-c2ccccn2)cs1)c1cc2ccccc2o1	11
119	C[C@@H]1NC(=O)c2cc([N+](=O)[O-])cc(I)c2NCCCC[C@@H](C(N)=O)NC(=O)[C@H](CC(N)=O)NC1=O	-1
120	S=C(NCCc1ccccc1)NC1CCC(NC(=S)NCCc2ccccc2)CC1 (centres undefined)	16
121	CCCCCCN(C(=O)CCCCCN1C(=O)NC(c2ccc(-c3ccccc3)cc2)C(C(=O)OCc2ccccc2)=C1C)C(C(=O)NCCCC)c1ccc(OCC(=O)OC)c(C(=O)OC)c1 (centres undefined)	13
122	Nc1ncccc1OCc1ccc(Br)cc1	10
123	COC(=O)c1cc(C(=O)Nc2ccc(S(=O)(=O)NC(C)(C)C)cc2)cc([N+](=O)[O-])c1	3
124	CC1=CC2=NC(=O)/C(=C\c3cccn3CCOc3ccccc3)C(=N)N2O1	26
125	C/C(=N\N=C(/N)c1nonc1N)c1ccc2c(c1)OCO2	17
126	CC1CCc2c(sc(NC(=O)CCCn3cnc([N+](=O)[O-])n3)c2C(N)=O)C1 (centres undefined)	5
127	CC(=O)c1c(C)[nH]c(C(=O)OCC(=O)Nc2cc(Cl)ccc2[N+](=O)[O-])c1C	4
128	C/C=N\NC(=O)COc1cc(C)ccc1C	18
129	COc1ccc(C(=O)c2c[nH]c(C(=O)NCCCN3CCOCC3)c2)cc1	15
130	CCCNS(=O)(=O)c1cc(Cl)ccc1OC	-4
131	O=C(NCCc1ccc(Cl)cc1)C1CCN(S(=O)(=O)c2ccc(Br)s2)CC1	8
132	Cc1nn(C)cc1S(=O)(=O)N1CCN(Cc2cccc(Cl)c2)CC1	-1
133	COC(=O)CNC(=O)Cn1nc(C)c([N+](=O)[O-])c1C	3
134	CC(NC(=S)Nc1ccccc1Cl)C(c1cccs1)N1CCCC1 (centres undefined)	7
135	N/C(=N\OC(=O)COc1ccc2ccccc2c1Br)c1ccncc1	4
136	COc1ccc(CC(=O)Nc2ccc(C(=O)NC(C)(C)C)cc2)cc1	0
